PABP polyA inh – blocks human PABP binding to poly(A) RNA; P11940; fluorescence polarization; inhibition, % at 35 µM; 290,000 tested, 1% active;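 active = 50% or more with normal probe brightness, or confirmed in later tests; inconclusive = above 50% with abnormal brightness, or retests that disagree; inactive = below 50% or failed in later tests; about a fifth of its hits are not listed in these tables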;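 note: calls also rest on retests at 20 µM and on dose response follow-up; controls were probe without protein and protein plus probe with vehicle; some compounds called inactive have numbers as strong as hits; many hits fall short of the cut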
Target sequence (P11940 whole entry, looked up): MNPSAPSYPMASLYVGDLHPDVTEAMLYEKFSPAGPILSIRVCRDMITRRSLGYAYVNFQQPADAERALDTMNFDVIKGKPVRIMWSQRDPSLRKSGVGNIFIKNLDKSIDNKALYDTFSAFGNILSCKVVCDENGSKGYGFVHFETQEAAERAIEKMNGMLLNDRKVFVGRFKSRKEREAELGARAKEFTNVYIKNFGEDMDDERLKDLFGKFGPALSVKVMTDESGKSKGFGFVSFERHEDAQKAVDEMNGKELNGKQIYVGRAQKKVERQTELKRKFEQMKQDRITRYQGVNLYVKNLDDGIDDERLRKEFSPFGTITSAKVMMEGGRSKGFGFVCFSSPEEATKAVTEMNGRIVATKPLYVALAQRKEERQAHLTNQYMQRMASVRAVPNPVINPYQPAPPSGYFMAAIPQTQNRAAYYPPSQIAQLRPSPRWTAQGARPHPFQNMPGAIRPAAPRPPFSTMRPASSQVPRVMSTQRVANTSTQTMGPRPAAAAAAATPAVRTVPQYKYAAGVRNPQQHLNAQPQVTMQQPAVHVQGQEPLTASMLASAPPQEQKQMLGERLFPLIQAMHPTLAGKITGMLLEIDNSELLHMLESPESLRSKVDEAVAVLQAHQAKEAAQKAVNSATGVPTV
Rce1 inh – blocks yeast Ras-converting enzyme. yeast membranes, quenched prenylated peptide cleavage fluorescence. 290,000 tested, 0.27% active. Q03530. calls only;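 active = fall in fluorescence gain of 50% or more versus controls, with final raw signal at or below 3038400; inconclusive = same 50% fall but final raw signal above 3038400; inactive = fall in fluorescence gain under 50%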;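 note: plate controls were neutral control wells for no effect and wells lacking membranes for full effect; tested at 10 µM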
eIF4H FP inh – inhibitors of RNA binding by human eIF4H. 290,000 tested, 0.94% active. eIF4H fluorescence polarization binding assay. inhibition, % at 35 µM. Q15056;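 active = 50% or more with normal probe brightness, or confirmed in later tests; inconclusive = above 50% with abnormal brightness, or retests that disagree; inactive = below 50% or failed in later tests; about a fifth of its hits are not listed in these tables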;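 note: calls also rest on retests at 20 µM and on dose response follow-up; 0% = protein and probe with vehicle and 100% = probe without protein; strong numbers were not always called active; many hits fall short of the cut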
Env fusion inh – blocks HIV Env-driven cell-cell fusion. HeLa-JRFL Env/CEM21 cell fusion, luciferase. inhibition, % at 12.3 µM. 360,000 tested, 1.1% active. AID 651610;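 active = mean replicate inhibition score of at least 50 and every replicate individually at or above 50; inconclusive = only one of the two criteria met; inactive = mean below 50 and not all replicates reaching 50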;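 note: 0% = plate neutral controls and 100% = maraviroc near 300 nM; one replicate is shown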
CSC inhib – blocks cancer stem cells | cancer stem cell-like cells viability, luminescence | inhibition, % at 7.5 µM | 300,000 tested, 1.1% active | AID 2717;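 active = mean at 75% or more and at least half the replicates too; inconclusive = mean and replicates disagree; tested in HMLE shEcad cells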;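 note: 0% = median of negative and 100% = median of positive control wells; the first replicate is given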
MT1-MMP act inh – MT1-MMP (human) activation inhibition; 360,000 tested, 0.061% active; HT1080 RFP-PRO-GFP cells, GFP/RFP ratio fluorescence, overnight; percent of plate control window, DMSO zero; GFP/RFP ratio change, % at 20 µM;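 active = GFP/RFP ratio change of at least 30% with cell ATP level not reduced by more than half and red fluorescence within 50% of control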; note: strong numbers were not always called active
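Assay system: HT1080 RFP-PRO-GFP cells. Benchmarks: DMSO vehicle wells and RFP-L50D-GFP reporter cell wells. Times: overnight cell settling, then overnight compound exposure, 37 °C, 5% CO2. Compound: 20 µM single dose, 1% DMSO. Read-out basis: GFP/RFP fluorescence ratio.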
UUG fidelity – alters start codon recognition fidelity in yeast. S. cerevisiae UUG-firefly luciferase reporter, luminescence/redox ratio. activity score, % at 18.7 µM. 350,000 tested, 0.13% active. AID 602363;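 active = replicate mean at a twofold rise or more, about +100% in these data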;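 note: firefly luciferase made from a UUG start codon reports start codon fidelity; reporter light over untreated wells divided by growth signal over untreated wells; some hits fall short of that in this replicate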
eIF4H FP inh retest – recorded beside eIF4H FP inh, whose call it bears; inhibition, %; compound at 20 µM; confirmation average;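 mean of two retest wells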
PABP polyA inh retest – also measured in PABP polyA inh; calls as there; inhibition, %; compound at 20 µM; confirmation repeats;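 mean of two retest wells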
MT1-MMP act inh RFP – also measured in MT1-MMP act inh; calls as there; RFP signal change, %; measured here: RFP expression control read;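 0 = vehicle wells; hits needed this value within 50% of zero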
* hit, by the source's call; i = inactive; ? = inconclusive; . = no result given.

SMILES | PABP polyA inh | Rce1 inh | eIF4H FP inh | Env fusion inh | CSC inhib | MT1-MMP act inh | MT1-MMP act inh RFP | UUG fidelity | others
N#Cc1c(-c2ccccc2)cc(-c2cccs2)nc1SCC(=O)O | 6 | i | 3 | -9 | 5 | -2 | -2 | -2
COc1cc(NS(=O)(=O)c2ccc3c(c2)NC(=O)CO3)cc(OC)c1 | -3 | i | -4 | 3 | -1 | -4 | -2 | -7
Cc1ccc(CCNC(=O)C2CCC(=O)N2C2CCCC2)cc1 (stereo unspecified) | -6 | i | -4 | . | -7 | -3 | -1 | 0
NC(=O)[C@@H]1CCCNc2c(F)cc([N+](=O)[O-])cc2C(=O)N[C@@H](CO)C(=O)NCC(=O)N1 | -11 | i | -4 | -38 | -5 | 3 | 2 | -10
CC(=O)Nc1ccc(S(=O)(=O)N2CCN(C)CC2)cc1 | 0 | i | -3 | -61 | -9 | -1 | 1 | -17
COc1cc(C2NC(=O)CCC2[N+](=O)[O-])cc(OC)c1OC (stereo unspecified) | -7 | i | 96 | 1 | -11 | 6 | 4 | -10 | eIF4H FP inh retest=-9;PABP polyA inh retest=24
CC(=O)C1C(c2ccc(Br)cc2)C2C(C)=NN=C2CC1(C)O (stereo unspecified) | -3 | i | -7 | 2 | -3 | 3 | 6 | 2
O=S(=O)(N1CCOCC1)N1CCCN(S(=O)(=O)N2CCOCC2)CC1 | -18 | i | -3 | . | -9 | 2 | -1 | -10
O=C1N(c2cccc(Cl)c2)C(c2ccccc2)N2CCCN12 (stereo unspecified) | -18 | i | -7 | 8 | 0 | 4 | -2 | .
COC(=O)c1ccc(N2CCC(c3cc(-c4ccc(OC)cc4)n[nH]3)CC2)c([N+](=O)[O-])c1 | 4 | i | 0 | -7 | 7 | -2 | -13 | -19
CC(=O)c1ccccc1NC(=O)COC(=O)C1=NN(c2ccccc2)C(=O)CC1 | . | . | . | 14 | . | 1 | 2 | -22
CSCCC(NC(=O)C1CCC(C)CC1)C(=O)NCCN1CCC(C)CC1 (stereo unspecified) | -9 | i | 3 | 30 | 2 | 8 | 5 | .
NC(=O)CN1C(=O)C(=O)N(Cc2ccccc2Cl)C1=O | -10 | i | -1 | -1 | -11 | 1 | 2 | -9
Cc1cccc(NC(=O)c2ccc(S(=O)(=O)N3CCOCC3)cc2)c1C | -4 | i | -2 | 4 | 2 | -1 | -2 | -2
Cc1cc(C(=O)N/N=C/c2ccc([N+](=O)[O-])cc2)c2ccccc2n1 | 2 | i | -9 | 18 | 49 | 1 | -12 | -1
COc1ccc(OCc2nnc(SCC(=O)Nc3ccccc3F)o2)cc1 | 4 | i | 69 | -45 | 0 | -1 | 2 | -19 | eIF4H FP inh retest=12;PABP polyA inh retest=10
O=C(NNC(=S)NC(=O)c1ccccc1Cl)c1cccc([N+](=O)[O-])c1 | -4 | i | 8 | 7 | 0 | 3 | 2 | -39
Cc1ccc(Sc2cnc3ccccc3n2)cc1 | -7 | i | -6 | . | -6 | -2 | -3 | -28
Cc1cc(C)c2c(N=CN(C)C)c(C(=O)N3CCN(c4ncccn4)CC3)sc2n1 | 9 | i | -1 | -71 | . | 5 | 8 | -8
Cc1cccc(C)c1NC(=O)CNc1ncnc2sc(C)c(C)c12 | -2 | i | -4 | 15 | 5 | 5 | -22 | .
Cc1nn(-c2ccccc2)c(Cl)c1C(=O)NNC(=O)c1ccncc1 | . | . | . | 0 | -1 | 4 | 3 | -21
Cc1ccc(-c2nnc(SCC(=O)Nc3nc4c(s3)CCCC4)n2C)cc1 | -6 | i | 2 | 0 | -3 | 4 | -1 | 0
CCc1nc2c(OCc3ccc(F)cc3)cccn2c1N(C)C(=O)c1ccco1 | . | . | . | -1 | . | -1 | -1 | -27
N#Cc1c2c(nc(N)c1-c1ccccc1)CCCCC2 | -5 | i | -3 | . | -13 | 3 | 4 | -4
O=C(NC1CCCc2c1cnn2-c1ccc(F)cc1F)c1cnccn1 (stereo unspecified) | -5 | i | -5 | -104 | -4 | 4 | -10 | .
C=CCOC(=O)/C(=C/c1cccnc1)NC(=O)c1ccccc1 | 7 | i | 0 | -1 | 1 | -4 | 1 | .
CC1(C)CC(=O)C2=C(C1)OC(N)=C(C#N)C2c1ccccc1[N+](=O)[O-] (stereo unspecified) | ? | i | ? | 2 | 7 | -62 | -5 | .
O=C(C1CCN(S(=O)(=O)c2ccccc2F)CC1)N1CCCC1 | . | . | . | -3 | . | 4 | 1 | 6
Cc1ccc(Cc2cnc(N3C(=N)SC(C)C3=O)s2)cc1 (stereo unspecified) | -5 | i | 15 | -15 | 43 | 2 | -1 | .
CC(=O)NCCC(=O)Nc1cccc(S(=O)(=O)N(C)c2ccccc2)c1 | 1 | i | -1 | -20 | . | 0 | -1 | -8
CC1(C)CC(=O)c2c(n(S(=O)(=O)c3ccccc3)c3ccc(NS(=O)(=O)c4ccccc4)cc23)C1 | 4 | i | 10 | . | 42 | -13 | -12 | -15
Cc1ccccc1NC(=S)NCc1ccc2c(c1)OCO2 | -1 | i | 0 | . | -10 | 1 | 1 | .
COc1cc2c(cc1OC)C(c1ccc3c(c1)OCO3)C1=C(CC(C)(C)CC1=O)N2 (stereo unspecified) | -6 | i | -5 | . | 12 | 0 | -7 | .
Cc1cc(C)c([N+](=O)[O-])cc1NC(=O)CCSc1ccccc1Cl | -6 | i | 4 | 15 | 2 | 2 | 1 | -11
CCOC(=O)N1CCC(c2cc(=O)n3[nH]c(C)c(-c4ccc(F)cc4)c3n2)CC1 | -8 | i | 7 | -4 | 24 | 6 | 3 | -4
Cn1c(SCC(=O)NCc2ccco2)nnc1-c1ccc(S(=O)(=O)N2CCOCC2)cc1 | 8 | i | 13 | . | -7 | 1 | 0 | -4
CN(C(=O)CSc1nc2ccccc2o1)C1CCCCC1 | . | . | . | -68 | . | 3 | -5 | -1
CCOc1ccc(/C(O)=C2/C(=O)C(=O)N(c3cc(C)on3)C2c2ccc(C(=O)OC)cc2)cc1 (stereo unspecified) | 6 | i | 3 | . | 4 | -6 | 2 | -13
NC(=O)c1cccnc1Oc1ccc(Cl)cc1 | 3 | i | 10 | 1 | -6 | -2 | -2 | -9
CCOC(=O)C(=O)Nc1ccc([N+](=O)[O-])cc1OC | -14 | i | 3 | -87 | . | 1 | 4 | .
O=C(CSc1nnc(Cc2ccccc2)c(=O)[nH]1)Nc1ccccc1 | . | i | . | 1 | -12 | 1 | 0 | .
Cc1ccc(C)c(C(=O)CN2Cc3ccccc3C2=O)c1 | 0 | i | -3 | -2 | 3 | 1 | -4 | .
CCCCn1c(N)c(N(CCC(C)C)C(=O)c2ccccc2-n2cnnn2)c(=O)[nH]c1=O | . | . | . | -10 | . | -2 | 4 | 0
CC(=O)Nc1ccc(NC(=O)C2CCN(C(=O)C3CC(=O)N(c4ccc(C)cc4)C3)CC2)cc1 (stereo unspecified) | -8 | i | -7 | 27 | . | 0 | 0 | 2
CN(CCC#N)CC(=O)Nc1ccc(NC(=O)CN(C)CCC#N)cc1 | 2 | i | 3 | . | 1 | 2 | 4 | -13
COC(=O)C1=CNC=C(C(=O)OC)C1c1ccccc1Cl | 4 | . | 9 | -28 | -34 | -6 | -6 | -10
CCc1nc(Nc2ccccc2F)c2oc3ccccc3c2n1 | 1 | i | -6 | 6 | 25 | 0 | 2 | -2
CC(=O)c1c(-c2ccccc2)c2cc(Cl)ccc2[nH]c1=O | -3 | i | 3 | -9 | -4 | -14 | -19 | .
COC(=O)c1ccc(N2CCc3ccccc32)c([N+](=O)[O-])c1 | -5 | i | 4 | 10 | 11 | 4 | -4 | -8
CCOc1ccccc1/C=N/OCC(=O)NCc1ccc(F)cc1 | 5 | i | 5 | 9 | 4 | -3 | -1 | .
CC1=C(C(=O)Nc2ccc(F)c(F)c2)C(c2cccs2)NC(=S)N1 (stereo unspecified) | -4 | i | -14 | -14 | -19 | -6 | -3 | -19
COCCN1Cc2cccc(C(=O)Nc3ccc(S(=O)(=O)N4CCCCCC4)cc3)c2C1=O | 3 | i | -8 | 5 | 13 | 5 | 5 | .
CC(C)CC(COCc1ccc(Cl)cc1)N1CCN(C(=O)c2ccc(C(F)(F)F)cc2)CCC1=O (stereo unspecified) | 6 | i | 2 | 66* | 19 | 1 | -11 | -2
COC(=O)c1ccc(C)c(NS(=O)(=O)c2ccc3c(c2)OCCO3)c1 | -3 | i | 8 | . | 51 | 6 | -6 | -10
C[C@@H](C(=O)NCc1c(F)cccc1Cl)N1C(=O)N2CCc3c([nH]c4ccccc34)[C@@]2(C)C1=O | 1 | i | -14 | . | -7 | -12 | -20 | -16
Cc1cc(NS(=O)(=O)c2ccc(NC(=O)c3cnc4sccn4c3=O)cc2)nc(C)n1 | -2 | i | 8 | 20 | 2 | 5 | 9 | -19
Cn1nnc2cc(C(=O)Nc3ccccc3F)ccc21 | 0 | i | 6 | -19 | . | -5 | -2 | .
CC/C(=N/NC(=O)CNc1ccc(Cl)cc1C)c1ccccc1 | -3 | i | 6 | 13 | -15 | -3 | 3 | .
CCCC(O)(CCC)C(=O)NN1CCCCC1 | -8 | i | -15 | . | -4 | 1 | 3 | -14
CC(C(=O)Nc1ccc(Cl)cc1)N(C)Cc1cccs1 (stereo unspecified) | 15 | i | -1 | 6 | -4 | 3 | 2 | -9
Next section.
SMILES | PABP polyA inh | Rce1 inh | eIF4H FP inh | Env fusion inh | CSC inhib | MT1-MMP act inh | MT1-MMP act inh RFP | UUG fidelity | others
Cc1cc(C)c(NC(=O)COC(=O)c2cccc3c2C(=O)c2ccccc2C3=O)c(C)c1 | -4 | i | 1 | 23 | 29 | -7 | -3 | .
C=CCNc1nc(-c2ccc3c(c2)OCCO3)cs1 | 4 | i | -8 | -343 | 1 | 1 | 1 | -39
C/C(=N\NC(=O)CNC(=O)C(c1ccccc1)c1ccccc1)c1ccc(C(C)(C)C)cc1 | 2 | i | 1 | -219 | 4 | 2 | 3 | -17
COc1ccc(C(=O)CSc2nnc(CNC(=O)c3ccco3)n2C)cc1OC | 11 | i | 7 | 1 | 6 | 4 | 4 | -4
Cc1cc(N2CCN(C)CC2)nc2ccc(NC(=S)N3CCN(c4ccccn4)CC3)cc12 | -12 | i | -6 | 2 | 29 | 1 | -6 | .
COc1ccc(-c2csc(Nc3ccccn3)n2)cc1OC | -8 | . | -2 | -135 | -5 | 2 | -7 | -30
O=C1C=C(c2ccc(Oc3ccccc3)cc2)C[C@@H](c2ccc(Cl)cc2)C1 | . | . | . | 14 | 16 | 8 | -4 | -1
CC(=O)N1N=C(c2cccc([N+](=O)[O-])c2)OC1c1cccc(Br)c1 (stereo unspecified) | -7 | i | 0 | -9 | 8 | 1 | -2 | 3
CCCc1nc2ccccc2c(C(=O)OCC(=O)N2CCc3ccccc32)c1CC | 2 | i | -7 | . | 83* | 2 | -11 | -6

3 structures from above, sorted by formula weight, ascending.
SMILES | PABP polyA inh | Rce1 inh | eIF4H FP inh | Env fusion inh | CSC inhib | MT1-MMP act inh | MT1-MMP act inh RFP | UUG fidelity | others
C=CCNc1nc(-c2ccc3c(c2)OCCO3)cs1 | 4 | i | -8 | -343 | 1 | 1 | 1 | -39
O=C1C=C(c2ccc(Oc3ccccc3)cc2)C[C@@H](c2ccc(Cl)cc2)C1 | . | . | . | 14 | 16 | 8 | -4 | -1
CC(=O)N1N=C(c2cccc([N+](=O)[O-])c2)OC1c1cccc(Br)c1 (stereo unspecified) | -7 | i | 0 | -9 | 8 | 1 | -2 | 3

High-throughput results (PubChem)
